# Screening results as filed in PubChem BioAssay.
# MgcRacGAP: MgcRacGAP inhibitors via phosphate release, confirmation, orthogonal assay, biochemical, inorganic phosphate detection, Rac1 (AID 652142) | MgcRacGAP/Rac1F28L GTP hydrolysis, Biomol green phosphate; active compounds read high; test concentration not given here; none was called active though about 1 in 100 pass the limit | Rac GTPase-activating protein 1 (Homo sapiens) | inhibition, % | 2,400 tested, under 10 active;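 active = inhibition over three standard deviations or about 65%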;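 note: full inhibition control lacks the GAP enzyme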
# * = called active by the depositor. Only part of the results is shown; the hit share may differ from the screen's.
MgcRacGAP	structure
26	COc1ccc(NCC(O)Cn2c(C)c(C)c3ccccc32)cc1 (stereo not drawn)
21	COc1cc2oc(-c3ccc(O)cc3)cc(=O)c2c(OC)c1O
9	O=C(COc1ccccc1C(=O)N/N=C\c1ccc(O)c(O)c1)N/N=C/c1ccc(O)c(O)c1
28	c1cc(CN2CCN(C3CCCCCC3)CC2)ccn1
21	O=C(CNC(=O)c1ccc2c(c1)OCCO2)N/N=C/c1ccc(O)cc1O
35	COC(=O)c1ccc2c(c1)C(C)(C)C(/C=C/c1ccc(OC)c(OC)c1OC)=[N+]2C
90	CCN(CC)c1ccc(C(=C2C=CC(=[N+](CC)CC)C=C2)c2ccc(N(CC)CC)cc2)cc1
5	CCOc1cc(/C=N/Nc2ncnc(Cl)c2N)ccc1O
19	COc1cc(C(C)=NNC(=O)c2ccncc2)ccc1O
24	Oc1ccc(/C=N/NC(=S)NCC2CCCO2)cc1 (stereo not drawn)
7	CC(C)C1N=C2c3ccccc3N=C(SCC(=O)c3ccc(O)c(O)c3)N2C1=O (stereo not drawn)
26	S=c1[nH]nc(-c2cccs2)n1/N=C/c1cccs1
13	CCOc1ccc(OCCOCCN2CCCC2)cc1
4	CCN1CCN(CC(=O)Nc2nc3ccc(OC)cc3s2)CC1
34	CN(C1CCCCC1)S(=O)(=O)c1cccc2nsnc12

# Structural class, those above containing nitrogen in an aromatic ring (7)
MgcRacGAP	structure
26	COc1ccc(NCC(O)Cn2c(C)c(C)c3ccccc32)cc1 (stereo not drawn)
28	c1cc(CN2CCN(C3CCCCCC3)CC2)ccn1
5	CCOc1cc(/C=N/Nc2ncnc(Cl)c2N)ccc1O
19	COc1cc(C(C)=NNC(=O)c2ccncc2)ccc1O
26	S=c1[nH]nc(-c2cccs2)n1/N=C/c1cccs1
4	CCN1CCN(CC(=O)Nc2nc3ccc(OC)cc3s2)CC1
34	CN(C1CCCCC1)S(=O)(=O)c1cccc2nsnc12

# Continued:
MgcRacGAP	structure
25	CN(C)c1ccc(/C=C2/C[N+](C)(C)C/C(=C/c3ccc(N(C)C)cc3)C2=O)cc1
21	COc1ccccc1OCC#CCn1ccnc1
22	Cc1ccc(S(=O)(=O)Oc2ccc(/C=C3\C(=N)N4N=C(S(C)(=O)=O)SC4=NC3=O)cc2)cc1
27	C=CCc1c(C)nc(-c2ccccc2)nc1Nc1ccc(O)cc1
26	CCc1nnc(NC(=O)CSCc2cc(=O)n3ccsc3n2)s1
26	CN(C)CCC(=O)N1C/C(=C/c2ccccc2)C(=O)/C(=C\c2ccccc2)C1
30	COCCCNC(=O)/C(C#N)=C/c1c(N2CCN(c3ccc(OC)cc3)CC2)nc2c(C)cccn2c1=O
30	COc1ccc(CNc2ncc(-c3ccc(F)cc3)n2C)cc1OC
21	COc1ccc(O/C(=N\S(=O)(=O)c2ccccc2)c2ccccc2)cc1
28	CCn1c(=O)n(CC)c2cc(N3CCCC3)c(NC(=O)c3ccccc3)cc21
35	CCn1c(SCC(=O)Nc2ccc(N(C)C)cc2)nnc1-c1cccc(C)c1
14	Cc1[nH]n(-c2ccccc2)c(=O)c1/C=N/N(C)c1ccccc1
19	O=C(CNC1CCCC1)Nc1ccc(N2CCCCCC2)cc1
9	CN(C(=S)NC(=O)C1CC1)c1ccc(O)cc1
20	O=C(CN1CCCCCC1)NN(Cc1ccccc1)c1ccccc1
6	Cc1ccc(NC(=O)NC(=O)CN2CCN(c3ccc(O)cc3)CC2)c(C)c1
40	O=C(CN1CCN(Cc2ccccc2)CC1)NC(c1ccccc1)c1ccccc1
36	COc1cc(/C=N/NC(=O)NC23CC4CC(CC(C4)C2)C3)ccc1O
21	C=CCNC(=S)N1CCN(Cc2ccc3c(c2)OCO3)CC1
31	COc1ccc(NC2CCCN(C(=O)CCc3cn[nH]c3)C2)cc1 (stereo not drawn)
24	CCOc1cc(/C=N/NC(=O)Nc2ccccc2)ccc1O
30	O=C(O)C1CCN(Cc2cnn(-c3ccccc3)c2-n2cccc2)CC1
13	CN=c1scc(C)n1/N=C/c1ccc(O)cc1
27	Oc1ccc(C2=Nn3c(nnc3-c3ccco3)SC2)cc1O
24	CCOc1ccc(CN2CCN(Cc3c[nH]c4ccccc34)CC2)cc1
36	CCOc1ccc(C2NC(=O)C(C#N)=C(S)N2c2ccc(C)cc2)cc1OC (stereo not drawn)
17	O=[N+]([O-])c1ccc(Oc2cccc3cccnc23)c([N+](=O)[O-])c1
18	CCCCOc1ccc(NC(=O)CN2CCN(CC)CC2)cc1
8	COc1ccc(N2CCN(C(=O)CCCn3c(=O)c4cccn4c4cccnc43)CC2)cc1
-3	O=[N+]([O-])c1cc([N+](=O)[O-])c2nonc2c1Nc1ccccc1O
17	Brc1cccc(OCCN2CCOCC2)c1
14	COc1cc2c(cc1N)-c1ccc(N)cc1C2
10	Nc1ccccc1Nc1cccc(C(F)(F)F)c1
14	O=C(Nc1ccc(Oc2nnc(-c3ccccc3)c3ccccc23)cc1)c1ccccc1
44	CC1(C)Nc2cccc3cccc(c23)N1
26	O=S(=O)(Nc1ccccc1F)c1cccc(NC(=S)NCCN2CCOCC2)c1
8	CCCS(=O)(=O)N1CCN(C2Cc3ccccc3C2)CC1
23	Cc1csc(=O)n1CC(=O)OC(C)C(=O)Nc1ccc(N(C)C)cc1 (stereo not drawn)
32	Cc1sc2ncnc(N(C)CCc3ccccn3)c2c1C
56	CCCCCCCCCCCCCCCC[N+](C)(C)Cc1ccc(F)cc1
26	O=C(N/N=C/c1sc2ccccc2c1O)c1cccc2ccccc12
28	COc1ccc(NC2CCCN(C(=O)COc3ccc(Cl)cc3C)C2)cc1OC (stereo not drawn)
20	COc1cc(/C=N/N=C2/SCC(=O)N2c2ccc(O)cc2)ccc1O
23	CN(C)c1ccc(NC(=S)NCC2CCCO2)cc1 (stereo not drawn)
24	CC1CC(C)(C)N(C(=O)CN2CCN(C)CC2)c2ccccc21 (stereo not drawn)
26	CN(Cc1ccccc1)C(=O)C1CCCN(Cc2ccc(Cl)cc2)C1 (stereo not drawn)
27	COc1cc(/C=N/N(C)c2ccccc2)cc(Cl)c1O
8	COc1ccc2c(c1)-c1c(ssc1=S)C(C)(C)N2
23	CC1CCC/C(=C\Nc2ccc(O)cc2)C1=O (stereo not drawn)
0	O=C(CNS(=O)(=O)c1ccc([N+](=O)[O-])cc1)N/N=C/c1ccc(O)cc1O
33	C[n+]1c(-c2ccccc2)cc2c(=Cc3ccccc3)c3ccccc3n21
25	Cc1c(O)ccc(/C(Cc2ccc3ccccc3n2)=N\O)c1O
46	CCN(CC)CCOC(=O)c1ccc(N/C=C(/C#N)c2nc(-c3ccc(OC)c(OC)c3)cs2)cc1
25	Oc1ccc(-c2csc(Nc3ccccn3)n2)cc1
35	S=C(NCCN1CCOCC1)Nc1ccc(Nc2ccccc2)cc1
34	COc1cc(/C=C/CN2CCC(CO)(CC3CCCCO3)CC2)ccc1O (stereo not drawn)
31	CN(C)c1ccc(NS(=O)(=O)c2ccc(Cl)cc2)cc1
25	CCOC(=O)C1CCCN(C2=NC(=O)/C(=C/c3ccc(O)c(OC)c3)S2)C1 (stereo not drawn)
20	O=C(N/N=C/c1ccc(O)cc1)c1cccc(C(F)(F)F)c1
23	COc1ccc(/C=N/N=C2/NC(=O)C(CC(=O)O)S2)cc1OCc1ccc(Cl)cc1Cl (stereo not drawn)

# (listing goes on)
MgcRacGAP	structure
3	CCOC(=O)c1[nH]c2ccccc2c1NC(=S)Nc1ccccc1C
29	CCOC(=O)C1CCN(Cc2ccc(-c3ccccc3)cc2)CC1
19	O=C(CCN1CCN(C(c2ccccc2)c2ccccc2)CC1)N/N=C/c1ccc(O)cc1
20	Cc1cc(-c2ccccc2)nc(N/N=C/c2ccc(O)cc2O)n1
75	O=c1c2ccccc2sn1-c1ccc(Cl)cc1
36	COc1cc(/C=N/N=C2/NC(=O)C(c3ccccc3)S2)ccc1O (stereo not drawn)
28	CCN1/C(=C\c2ccc3ccccc3[n+]2CC)Sc2cc(C)ccc21
24	COc1ccc(NC2CCCN(C(=O)CCN3CCCO3)C2)cc1 (stereo not drawn)
25	C[C@@H]1O[C@@H](OC[C@H]2O[C@@H](Oc3cc(O)c4c(=O)cc(-c5ccc(O)c(O)c5)oc4c3)[C@H](O)[C@@H](O)[C@@H]2O)[C@H](O)[C@H](O)[C@H]1O
16	CC(=O)NC(Nc1c(C)n(C)n(-c2ccccc2)c1=O)C(Cl)(Cl)Cl (stereo not drawn)
14	COc1ccc(C(=O)/C=C/c2ccc(O)cc2)c2c1CC(O)C(C)(C)O2 (stereo not drawn)
3	Cc1ccc(CNc2ccc(N3CCOCC3)cc2)s1
33	CCOc1c(Cl)cc(CNc2ccc(N3CCCC3)cc2)cc1OC
30	COc1ccc2c(c1)-c1nc(/N=C/c3c(O)ccc4ccccc34)sc1CC2
32	COc1ccc(CNCC(=O)Nc2cc(OC)cc(OC)c2)cc1
36	O=C1ON=C(c2ccccc2)/C1=C/c1ccc(O)c(O)c1
33	Oc1ccc(/C=N/Nc2nc(N3CCCC3)nc(N3CCCC3)n2)cc1O
29	O=C(CN1CCN(c2ccc(O)cc2)CC1)N(C1CC1)C1CCS(=O)(=O)C1 (stereo not drawn)
0	CCN(CC)c1ccc(/C=N/NC(=O)OC)c(O)c1
23	Nc1sc(-c2ccccc2)c(Cc2ccccc2)c1C(=O)O
32	COc1cc2c(cc1OC)C(c1cc(Br)c(OC)c(OC)c1)CC(=O)N2 (stereo not drawn)
0	COc1cc(/C=N/NC(=O)CNC(=O)c2ccc3c(c2)OCCO3)ccc1O
24	CS(=O)(=O)c1ccc2c(c1)sc1nc(=O)c(/C=C3/C=CC(=O)C(O)=C3)c(N)n12
18	CCOC(=O)c1[nH]c2ccc(C)cc2c1N
30	CCN(CC)CCOC(=O)c1ccc(N/C=C(/C#N)c2nc(-c3ccc4c(c3)OCO4)cs2)cc1
14	COc1cc(/C=N/NC(=O)CNc2n[nH]c(=O)[nH]c2=O)ccc1O
15	O=C1C=CC(=Nc2ccc3c(c2)Cc2ccccc2-3)O1
3	CCN(Cc1ccccc1)C(c1ccc(C)cc1)c1nnnn1C(C)(C)CC (stereo not drawn)
34	Cc1ccc(NC(=O)CCNCc2ccco2)cc1S(=O)(=O)N(C)C
30	CCN(CC)c1ccc(NC(=O)c2ccc3c(c2)OCO3)cc1
28	Cn1c(-c2ccc3c(c2)OCO3)cnc1NCc1ccccc1Cl
2	COc1ccccc1-c1cn[nH]c1-c1ccc(O)cc1O
25	COC(=O)c1ccc(CNC(=O)COC(=O)/C=C/c2ccc(O)c(OC)c2)cc1
22	Cc1ccc2c(c1)cc(C(=O)NCc1ccccc1)n2C
25	COc1ccc(N2C(=O)CC(Nc3ccc(N4CCOCC4)cc3)C2=O)c(OC)c1 (stereo not drawn)
22	O=c1oc(-c2ccc(O)c(O)c2)cc2cccc(O)c12
18	C=CCn1c(=O)/c(=C/c2ccc(O)cc2)s/c1=C(/C#N)c1nnc2n1CCCCC2
33	Cc1[nH]n(-c2cccc(Cl)c2)c(=O)c1-c1ccc(Cl)cc1
6	CCNC(=S)Nc1cc2oc3ccccc3c2cc1OC
13	COc1ccc(NC2CCCN(C(=O)c3cccc(N4CCNC4=O)c3)C2)cc1 (stereo not drawn)
8	COc1ccc(CNC(=O)CN(C)Cc2ccc(C(C)(C)C)cc2)cc1
21	Cc1ccc(OC(=O)CCC(=O)Nc2ccc(C)c(C)c2)cc1
27	COc1ccc(/C=N/Nc2nc3ccccc3[nH]2)cc1OC
23	Cc1cccc(N2CCC(N=CN(C)C)=N2)c1
4	CCN(Cc1ccccc1)c1ccc(/C=N/N2CCOCC2)cc1

# Two records drawn at random from those above:
MgcRacGAP	structure
18	C=CCn1c(=O)/c(=C/c2ccc(O)cc2)s/c1=C(/C#N)c1nnc2n1CCCCC2
22	O=c1oc(-c2ccc(O)c(O)c2)cc2cccc(O)c12

# Remaining list, next part.
MgcRacGAP	structure
28	C=CC[n+]1c(/C=C/c2ccc(OC(C)=O)c(OC)c2)ccc2ccccc21
14	CCOC(=O)C1=C(C)NC(=O)CC1c1cc2c(cc1[N+](=O)[O-])OCO2 (stereo not drawn)
28	COc1ccc2c(C)cc3n[nH]c(=S)n3c2c1
28	CC(=C/c1ccccc1)/C=N/n1c(-c2ccco2)n[nH]c1=S
30	O=C(c1ccco1)N1CCN(Cc2cccc([N+](=O)[O-])c2)CC1
-4	O=C(COC(=O)COc1ccc(Nc2ccccc2)cc1)NCc1ccco1
33	CCOC(=O)c1c(N)sc2c1CCS(=O)(=O)C2
15	COc1cc(/C=C2\SC(=Nc3ccc(Cl)c(C(=O)O)c3)NC2=O)c(Br)c(Br)c1O
67	O=C1C=CC(=O)N1c1ccccc1N1C(=O)C=CC1=O
33	O=C(CNC1CC1)Nc1cc(C(F)(F)F)ccc1Cl
23	COc1ccc(NC2CCCN(C(=O)CN3CCOC3=O)C2)cc1 (stereo not drawn)
29	C/C=C/c1ccc(OCCCCN(C)Cc2ccccc2)c(OC)c1
19	COc1ccc(OC(=O)COc2ccc(C)cc2)cc1
12	CC(C)c1ccc(/C=N/N2CCCCC2)cc1
35	O=C(NC(NC(=S)Nc1ccc(Cl)c(Cl)c1)C(Cl)(Cl)Cl)c1ccco1 (stereo not drawn)
16	CCN(CC)c1ccc(NC(=O)COC(=O)CCC(=O)c2cccs2)cc1
53	Cc1cc(C(=O)NNC(=O)/C=C/c2ccco2)c(C)o1
22	O=C(CN1CCN(C/C=C/c2ccccc2)CC1)Nc1ccccc1C(=O)NC1CC1

# Reformatted as labelled records: three of the compounds above.
> CCOC(=O)c1c(N)sc2c1CCS(=O)(=O)C2
  MgcRacGAP: 33
> COc1cc(/C=C2\SC(=Nc3ccc(Cl)c(C(=O)O)c3)NC2=O)c(Br)c(Br)c1O
  MgcRacGAP: 15
> O=C1C=CC(=O)N1c1ccccc1N1C(=O)C=CC1=O
  MgcRacGAP: 67
